Lassa entry inh: inhibitors of Lassa virus binding or cell entry; Lassa virus pseudotype entry inhibition, cell reporter; control for the full effect not named in the record; Potency, µM (doses to about 37.9 µM), inactives show top-dose activity change, negative = inhibition, most hits filed as inhibitors; 1.2% of 300,000 active; AID 540256; active means well fitted inhibition curve with a large enough effect; inconclusive means small, poorly fitted or top-dose-only effect, or effect the other way; inactive means flat fitted curve, though single readings scatter; tested in HEK293 cells; also: % is scaled to controls: 0 for no effect and ±100 for the full control effect; nearly all actives have a fitted effect of over 50% in size; luciferase read-out
Cruzain inh noDet: cruzain (T. cruzi) inhibition without detergent. purified cruzain, Z-FR-AMC fluorescence, no detergent. Potency, µM, inactives show max response, negative = inhibition, actives largely listed as inhibitors. 2.3% of 200,000 active. AID 1476; active = well fitted curve in the direction sought with a large enough effect; inconclusive = small, poorly fitted or top-dose-only effect, or another doubt; inactive = no such curve, though single readings can be large; an effect the other way counts as inactive or inconclusive;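 also: plate controls were enzyme without inhibitor for no effect and buffer without enzyme for full effect; nearly all actives have a fitted effect of over 40% in size; top concentration of the series not given in the record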
Target sequence (P25779 123-467 limits assumed): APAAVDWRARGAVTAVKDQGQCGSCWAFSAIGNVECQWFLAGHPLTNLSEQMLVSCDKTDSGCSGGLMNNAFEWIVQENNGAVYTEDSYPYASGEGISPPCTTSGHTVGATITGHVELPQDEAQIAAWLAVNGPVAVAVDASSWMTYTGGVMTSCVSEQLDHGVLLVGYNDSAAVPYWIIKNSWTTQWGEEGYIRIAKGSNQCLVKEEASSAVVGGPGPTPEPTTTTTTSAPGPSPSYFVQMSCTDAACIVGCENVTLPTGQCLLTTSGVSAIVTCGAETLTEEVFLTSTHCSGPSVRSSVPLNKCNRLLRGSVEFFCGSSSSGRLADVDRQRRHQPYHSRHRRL
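Detergent-free condition (0.00005% Triton X-100) in acetate buffer pH 5.5 with DTT. 1.5 nM enzyme and compound were pre-mixed 15 min, then 2 uM Z-FR-AMC substrate added; reaction progress from fluorescence change between first and third reads (60 s).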
NS1 inh: inhibitors of influenza NS1 protein function; Potency, µM (highest dose often 46.1 µM), without a hit: at the highest dose activity, positive = more growth; S. cerevisiae slowed by influenza A NS1, growth recovery by OD600; 0.4% of 270,000 active; also: actives are rising curves; nearly all actives have a fitted effect of over 50% in size
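Read-out: OD600 growth recovery of NS1-expressing budding yeast. Cells grown overnight at 30C in -URA glucose medium, washed, resuspended and diluted 1:100 in 2% galactose assay medium, pH 6.0. Same strain lacking NS1 served as positive control.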
Cruzain Triton: cruzain (T. cruzi) inhibition with detergent | P25779 | purified cruzain, Z-FR-AMC fluorescence, 0.01% Triton | Potency, µM, for the others: max response, negative = inhibition, most hits filed as inhibitors | 0.43% of 200,000 active; active = well fitted curve in the direction sought with a large enough effect; inconclusive = small, poorly fitted or top-dose-only effect, or another doubt; inactive = no such curve, though single readings can be large; an effect the other way counts as inactive or inconclusive;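 also: plate controls were neutral wells for no effect and buffer without enzyme for full effect; nearly all actives have a fitted effect of over 40% in size; top concentration of the series not given in the record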
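Z-FR-AMC hydrolysis (2 uM substrate) by cruzain (1.5 nM) monitored kinetically at ex 360/em 450 nm after 15 min room-temperature compound exposure; 0.01% Triton X-100, pH 5.5, 5 mM DTT.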
MARV entry inh: blocks Marburg virus binding to or entry into cells | 1.8% of 300,000 active | Marburg virus pseudotyped entry inhibition, cell reporter; control for the full effect not named in the record; about a third of the inactives were read at about 46 µM | AID 540276 | Potency, µM (top dose mostly 37.8 µM), inactives show at the highest dose activity change, negative = inhibition, hits mostly inhibitors; active = well fitted inhibition curve with a large enough effect; inconclusive = small, poorly fitted or top-dose-only effect, or effect the other way; inactive = flat fitted curve, though single readings scatter; tested in HEK293 cells; about a fifth of its hits are not listed in these tables; also: % is scaled to controls: 0 for no effect and ±100 for the full control effect; luciferase read-out
SARS PLP yeast: inhibitors of SARS-CoV papain-like protease in yeast; S. cerevisiae expressing SARS-CoV PLpro, growth rescue; control for the full effect not named in the record; Potency, µM (top dose mostly 32.9 µM), for the others: top-dose activity, positive = growth rescue; AID 485353; 0.19% of 330,000 active; also: 0% is about no effect; nearly all actives have a fitted effect of over 55% in size; growth read by luminescence after 48 h
StopGo reporter: FMDV 2A StopGo reporter, luciferase signal; human cells with a luciferase reporter of 2A StopGo recoding; control for the full effect not named in the record; Potency, µM (top dose mostly 57.9 µM), without a hit: at the highest dose signal change, negative = less light; 1.2% of 410,000 active; active = well fitted falling curve with a large enough effect; inconclusive = small, poorly fitted or top-dose-only effect; inactive = no such curve, though single readings can be large or run the other way; tested in HEK293T cells; also: % is scaled to controls: 0 for no effect and ±100 for the full control effect; nearly all actives have a fitted effect of over 45% in size; luciferase light after 4 h
RE007 growth inh: less growth of the S. pombe RE007 Vpr strain. 0.21% of 360,000 active. Potency, µM (doses to about 92.2 µM), without a hit: at the highest dose activity change, negative = less growth. S. pombe RE007 Vpr strain, BacTiter-Glo ATP luminescence, 24 h; control for the full effect not named in the record; active = well fitted falling curve with a large enough effect; inconclusive = small, poorly fitted or top-dose-only effect; inactive = no such curve, though single readings can be large or run the other way;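 also: % is scaled to controls: 0 for no effect and ±100 for the full control effect; nearly all actives have a fitted effect of over 50% in size; the assay follows cell death caused by Vpr and the record does not say whether a fall means rescue or toxicity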
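Fission yeast RE007 carrying one integrated HIV-1 vpr copy, seeded at OD 0.01 in PMG+AL medium with 23 nL pinned compound. Grown 24 h at 30 degrees; viability read by BacTiter-Glo luminescence after 5 min.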
An asterisk follows results filed as active; [ ] = remark or other dose. Unless noted, calls follow the shape of the dose curve; as a rule, active means well fitted rising curve with a large enough effect; inconclusive means small, poorly fitted or top-dose-only effect; inactive means no such curve, though single readings can be large or run the other way. Potency is read from the fitted curve at half-maximal effect.

`Cc1ccc(NC(=S)NC(=O)C2CCCCC2)c(Br)c1` gave Lassa entry inh inconclusive, MARV entry inh inconclusive, SARS PLP yeast inconclusive, StopGo reporter 24.3% and RE007 growth inh -19.9%.
Screening Cn1nnc(NC(=O)/C=C/c2ccco2)n1 returned Lassa entry inh -12.4%, NS1 inh 8.4%, MARV entry inh -19.9%[14.2 µM], SARS PLP yeast 3.9%, StopGo reporter 13.6% and RE007 growth inh -10.3%.
Screening COc1ccc(C(=O)c2cnc3ccc(C)cc3c2S(=O)(=O)c2ccccc2)cc1 returned Cruzain inh noDet inconclusive, Cruzain Triton -4.0%, MARV entry inh inconclusive and StopGo reporter 12.6%.
Cc1ccc(Nc2nc(-c3sc(NC(=O)c4ccc([N+](=O)[O-])cc4)nc3C)cs2)cc1 was read as Cruzain inh noDet 7.94µM*, NS1 inh -1.9%, Cruzain Triton -0.2%, MARV entry inh 0.0% and SARS PLP yeast -7.5%.
For FC(F)(F)COc1nc(N/N=C/c2cccnc2)nc(N2CCCCC2c2ccccn2)n1 (stereo not given) the results were Lassa entry inh -15.9%, MARV entry inh -0.5%, SARS PLP yeast -1.0%, StopGo reporter -13.7% and RE007 growth inh -15.0%.
For COc1ccc2c(c1)[nH]c1c(Cl)ncnc12 the results were Lassa entry inh -17.0%[46.1 µM], Cruzain inh noDet 7.6%, NS1 inh -7.7%, Cruzain Triton -9.3%, MARV entry inh inconclusive, SARS PLP yeast -40.4%, StopGo reporter -11.9% and RE007 growth inh 5.8%.
`CCC1CCCCN1C(=S)Nc1cccc(S(=O)(=O)N(C)C)c1` (stereo not given) gave Lassa entry inh -18.1%, NS1 inh -6.2%, MARV entry inh -1.5%[46.1 µM], SARS PLP yeast -1.3%, StopGo reporter 4.9% and RE007 growth inh -7.5%.
Cc1ccc(CNC(=O)c2c(-c3ccc(F)cc3F)noc2C)o1 was read as Lassa entry inh -7.9%[46.1 µM], Cruzain inh noDet -11.7%, Cruzain Triton 1.2% and StopGo reporter -14.7%.
`COc1ccc(CNC(=O)Cn2ncn3nc(-c4cccs4)cc3c2=O)cc1` gave Lassa entry inh 3.5%[46.1 µM], Cruzain inh noDet 4.8%, Cruzain Triton -1.7%, MARV entry inh 9.2%[46.1 µM] and StopGo reporter -3.6%.
`COc1ccc(C)cc1S(=O)(=O)N(C)CC(=O)N1CCN(C)CC1` gave Lassa entry inh inconclusive, Cruzain inh noDet -9.6%, NS1 inh -1.2%, Cruzain Triton 5.8%, MARV entry inh 8.7%, SARS PLP yeast 11.3%, StopGo reporter -20.3% and RE007 growth inh 8.0%.
Screening Cn1cccc1/C=N/N1CCN(c2ccccn2)CC1 returned Lassa entry inh 13.4%, Cruzain inh noDet 12.3%, NS1 inh inconclusive, Cruzain Triton -3.2%, MARV entry inh inconclusive, SARS PLP yeast 6.8%, StopGo reporter 0.2% and RE007 growth inh -15.6%.
`O=C(CCSc1ccc(Cl)cc1)N1CCCCCC1` gave Lassa entry inh inconclusive, Cruzain inh noDet -8.8%, NS1 inh -17.0%, Cruzain Triton -0.1%, MARV entry inh 6.0%, SARS PLP yeast 3.7%, StopGo reporter 32.7%[activator] and RE007 growth inh inconclusive.
CSCc1cc(N(C)c2ccccc2)nc(-c2ccccn2)n1 was read as NS1 inh -35.2%, SARS PLP yeast -4.8%, StopGo reporter 0.0% and RE007 growth inh -22.2%.
`S=C(c1ccc(Br)cc1)N1CCN(Cc2ccccc2)CC1` gave Lassa entry inh -16.0%, Cruzain inh noDet -1.2%, NS1 inh -38.5%, Cruzain Triton -1.6%, MARV entry inh -0.6%, SARS PLP yeast -0.7%, StopGo reporter inconclusive and RE007 growth inh -16.6%.
Fc1ccc(C(NCCc2ccc(Cl)cc2)c2nnc(-c3ccccc3Cl)o2)cc1 (stereo not given) was read as Lassa entry inh -23.7%[46.1 µM], Cruzain inh noDet 27.1%, Cruzain Triton -5.1%, MARV entry inh inconclusive and StopGo reporter 2.1%.
Screening CCCC(=O)Nn1cnc2c(c1=O)C1(CCCCC1)Cc1ccccc1-2 returned Lassa entry inh -27.1%, Cruzain inh noDet -3.0%, NS1 inh -11.8%, Cruzain Triton -2.3%, MARV entry inh -14.1%, SARS PLP yeast -8.0%, StopGo reporter -27.9% and RE007 growth inh -16.5%.
FC(F)(F)c1cccc(NC(=S)NCc2ccccn2)c1 was read as Lassa entry inh 0.8%, Cruzain inh noDet -5.1%, NS1 inh -35.0%, Cruzain Triton -1.3%, MARV entry inh -15.9%, SARS PLP yeast 12.6%, StopGo reporter 12.9% and RE007 growth inh -22.8%.
Screening CCc1ccc(NC(=O)CN(c2ccc3c(c2)OCO3)S(=O)(=O)c2c(C)noc2C)cc1 returned Cruzain inh noDet -4.0%, NS1 inh -28.3%, Cruzain Triton -4.7%, SARS PLP yeast 3.1%, StopGo reporter inconclusive and RE007 growth inh -8.1%.
CCC1=C2CC[C@H]3C(=O)N(CC(=O)OC)C(=O)[C@H]3[C@H]2[C@@]2(C)C(=NCC(=O)OC)OC(=O)N2C1=O was read as Cruzain inh noDet -6.2%, NS1 inh 1.4%, Cruzain Triton 6.0%, SARS PLP yeast -0.5%, StopGo reporter -6.1% and RE007 growth inh 2.0%.
For O=C(C1COc2cc(S(=O)(=O)Nc3ccc(Cl)cc3)ccc2O1)N1CCCC1 (stereo not given) the results were Lassa entry inh inconclusive, Cruzain inh noDet 0.7%, Cruzain Triton -5.3% and StopGo reporter 8.6%.
Screening Cc1cc2c(=O)n(CC(=O)NCC(=O)N3CCN(Cc4ccccc4)CC3)cnc2s1 returned Lassa entry inh 2.7%, Cruzain inh noDet 13.9%, NS1 inh -2.3%, Cruzain Triton 3.9%, MARV entry inh 7.4%, SARS PLP yeast -0.9%, StopGo reporter -11.3% and RE007 growth inh -3.6%.
CCn1c(C(=O)OC)cc2c1ccn2-c1ccc(F)cc1 was read as Lassa entry inh -11.9%, Cruzain inh noDet -4.8%, NS1 inh -53.6%, Cruzain Triton -1.6%, MARV entry inh 15.3%, SARS PLP yeast -37.4%, StopGo reporter -60.2% and RE007 growth inh -19.6%.
For CC1CCCC(C)N1C(=O)COC(=O)CNC(=O)c1sc2ccccc2c1Cl (stereo not given) the results were Lassa entry inh 8.9%, MARV entry inh -0.7%, SARS PLP yeast 7.2%, StopGo reporter -1.0% and RE007 growth inh -2.4%.
Cc1cc(Cl)ccc1NC(=O)CN(c1ccccc1Br)S(C)(=O)=O was read as Lassa entry inh inconclusive, Cruzain inh noDet -2.5%, Cruzain Triton -4.4% and StopGo reporter -4.0%.
CCN(C(=O)c1cc2c(=O)[nH]c3ccc(C)cc3c2s1)c1ccc(F)cc1 was read as NS1 inh 0.4%, SARS PLP yeast -0.2%, StopGo reporter -15.9% and RE007 growth inh -15.5%.
Screening COc1ccc(NC(=O)CN(C)C(=O)c2ccc3ccccc3c2)cc1 returned Lassa entry inh 9.6%, MARV entry inh 4.9%, SARS PLP yeast 3.8%, StopGo reporter 11.4% and RE007 growth inh -12.8%.
Screening CCOc1ccc(C2=CC(c3cc(Br)ccc3F)n3ncnc3N2)cc1Cl (stereo not given) returned Lassa entry inh inconclusive, Cruzain inh noDet 0.2%, Cruzain Triton -3.3% and StopGo reporter -7.8%.
O=C(NC(=O)c1ccccc1O)c1ccc(C(F)(F)F)cc1 was read as Lassa entry inh inconclusive, NS1 inh 6.1%, MARV entry inh inconclusive, SARS PLP yeast -4.4%, StopGo reporter -25.5% and RE007 growth inh 1.5%.
Screening CCOc1ccc2nc(NCCCNS(=O)(=O)c3ccc(F)cc3)c(C#N)cc2c1 returned Lassa entry inh -19.7%, MARV entry inh -23.2%, StopGo reporter inconclusive and RE007 growth inh 6.8%.
For O=C(NC(Cc1ccccc1)C(=O)O)/C(=C\c1ccccc1)NC(=O)c1ccco1 (stereo not given) the results were Lassa entry inh 3.9%, NS1 inh 23.3%, MARV entry inh 27.1%[46.1 µM], SARS PLP yeast 1.7%, StopGo reporter -5.6% and RE007 growth inh 9.8%.
Screening Cc1ccsc1C(=O)Nc1ccc(C(=O)O)cc1 returned Lassa entry inh 1.3%, Cruzain inh noDet 0.9%, NS1 inh -2.1%, Cruzain Triton 0.3%, MARV entry inh 5.4%, SARS PLP yeast 3.3%, StopGo reporter 34.8%[activator] and RE007 growth inh inconclusive.
For O=C(/C=C/c1ccco1)Nc1ccc2nn(-c3ccccc3)nc2c1 the results were Lassa entry inh 18.1%, Cruzain inh noDet inconclusive, NS1 inh 12.6%, Cruzain Triton -6.1%, MARV entry inh inconclusive, SARS PLP yeast -24.2%, StopGo reporter 9.1% and RE007 growth inh 3.9%.
`CN(C)S(=O)(=O)c1cc(NC(=O)CN2CCCc3ccccc32)ccc1Cl` gave Lassa entry inh inconclusive, MARV entry inh inconclusive, SARS PLP yeast -2.2%, StopGo reporter -26.5% and RE007 growth inh 6.8%.
O=C(O)CNC(=S)N(Cc1ccccc1Cl)C1CCCCC1 was read as Lassa entry inh 1.6%[46.1 µM], MARV entry inh 12.3%[46.1 µM], SARS PLP yeast -1.5%, StopGo reporter -4.8% and RE007 growth inh 10.0%.
`Cn1c(=O)cc(OCC(=O)N2CCN(Cc3ccc4c(c3)OCO4)CC2)c2ccccc21` gave Lassa entry inh 6.4%, Cruzain inh noDet 5.6%, NS1 inh -7.0%, Cruzain Triton -0.8%, MARV entry inh 0.5%, SARS PLP yeast 0.3%, StopGo reporter -13.9% and RE007 growth inh -0.7%.
OC(COc1ccccc1)CN1CCC(Cc2ccccc2)CC1 (stereo not given) was read as Lassa entry inh inconclusive, NS1 inh 19.7%, MARV entry inh inconclusive, SARS PLP yeast -2.8%, StopGo reporter -8.4% and RE007 growth inh -12.7%.
`COc1ccc(CC(=O)NCc2ccc(Cl)cc2)cc1S(=O)(=O)N1CCOCC1` gave Lassa entry inh -6.5%, MARV entry inh -6.3%, SARS PLP yeast 9.1%, StopGo reporter -13.0% and RE007 growth inh 1.1%.
`Cc1ccc(NC(=O)N2CCc3cc(S(=O)(=O)N4CCC(C)CC4)ccc32)cc1C` gave Lassa entry inh -7.5%[46.1 µM], Cruzain inh noDet 5.7%, Cruzain Triton -2.4%, MARV entry inh 10.0%[46.1 µM] and StopGo reporter -11.2%.
`N#C/C(=C\c1cccc([N+](=O)[O-])c1)C(=O)NCc1cccnc1` gave Lassa entry inh inconclusive, Cruzain inh noDet 1.4%, NS1 inh 7.3%, Cruzain Triton -4.1%, MARV entry inh 2.6%, SARS PLP yeast -20.4%, StopGo reporter inconclusive and RE007 growth inh 1.7%.
For Cc1cccc(CN2CCN(CC(=O)NCc3ccc(Cl)cc3)C2=O)c1 the results were Lassa entry inh -13.3%[46.1 µM], Cruzain inh noDet 8.7%, Cruzain Triton 2.6%, MARV entry inh -4.1%[46.1 µM] and StopGo reporter 0.6%.

Bioassay records from PubChem BioAssay.
